# ugtP null kill = growth inhibition of S. aureus ugtP deletion strain | S. aureus RN4220 ugtP deletion, OD600 growth, 16 h; some inactives read as strong as hits | growth inhibition, % (test concentration not listed) | hit rate 0.54% among 330,000;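 active = z-score under -3 and OD600 up to 0.15 on both plates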;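 note: plate controls were untreated wells for no effect and antibiotic for full effect; wells of about 80 µL received 100 nL stock; the first replicate is given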
# PrP 5UTR inh = suppresses PrP 5' UTR mRNA reporter expression | inhibition, % (no concentration beside the values) | hit rate 0.35% among 340,000 | cell-based PrP 5' UTR mRNA reporter, plate reader;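 active = every replicate at 50% or more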;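 note: 0 = median of the neutral control wells; tested in H4 reporter cells; numbers are from one replicate; inactives centre near -14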
# BJeLR lethal = BJeLR cell viability loss. BJeLR (HRASV12) viability, CellTiter-Glo ATP luminescence, 48 h; reference of the scale not given here. inhibition, % (test concentration not listed). hit rate 0.17% among 300,000;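 active = replicate mean above 50%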;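 note: 50 nL library stock added to about 25 µL; numbers are from one replicate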
# Sa RN4220 lethal = S. aureus RN4220 growth inhibition; OD600, 16 h; inhibition, % (concentration not given with the values); hit rate 0.33% among 330,000;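 active = z-score of -3 or lower and OD600 up to 0.18 on both plates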;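 note: plate controls were untreated cells for no effect and reference antibiotic for full effect; stock transfer was 100 nL into about 80 µL; one replicate is shown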
# Mtb hypoxia rep = Mtb hypoxia fluorescent reporter inhibition; M. tuberculosis hypoxia-regulated fluorescent reporter, fluorescence; fluorescence inhibition, % (no concentration beside the values); hit rate 0.1% among 300,000;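 active = 35 to 45% if threefold the growth effect, above 45% if 1.5-fold the growth effect; inactive = the rest, general growth blockers included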;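 note: wells of about 50 µL received 100 nL stock; 0% = vehicle wells and 100% = reference inhibitor wells; whole bacteria with a GFP reporter of the hypoxia response; strong numbers were not always called active; many hits fall short of the cut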
# Autofluor counter = compound fluorescence in toxin protease inhibitor counterscreen; hit rate 3.1% among 360,000; compound autofluorescence counterscreen, microsphere flow cytometry; active compounds read high; fluorescence intensity (no concentration beside the values);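 active = at least 3 SD above the mean of all compounds, about 16000 in these data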;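 note: 100 nL of 1 mM stock went into each well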
# Mtb hypoxia rep growth = second read-out of Mtb hypoxia rep, no call of its own (marks repeat the call); growth inhibition, %; measured here: M. tuberculosis growth (absorbance);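 0% = vehicle and 100% = reference antibiotic; read after six days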
# An asterisk follows results filed as active; . = not tested or not shown; & = joins results of further samples.
SMILES,ugtP null kill,PrP 5UTR inh,BJeLR lethal,Sa RN4220 lethal,Mtb hypoxia rep,Mtb hypoxia rep growth,Autofluor counter
COc1ccc(-c2n[nH]c(C)c2-c2cnn(-c3ccccc3)c2)c(O)c1,-1,-14,3,-6.3,4,8,19850*
CCOC(=O)C1CCN(Cc2nc3ccc([N+](=O)[O-])cc3c(=O)n2-c2ccc(OC)cc2OC)CC1,1,-31,21,1.1,8,7,3997
Cc1cccc(N2CCN(C(c3ccccc3)c3nnnn3C(C)(C)C)CC2)c1C (configuration not stated),9,-15,30,2.3,9,4,4613
O=C(NCC(c1ccco1)N1CCCCC1)c1ccc([N+](=O)[O-])s1 (configuration not stated),-1,.,.,14,-2,0,3022
COc1cccc(C(=O)N2C(C(=O)O)CSC2c2ccccc2Cl)c1 (configuration not stated),10,-15,-2,7.7,10,14,1871
CSc1nc(Cl)c(Cc2ccc(OCC(C)C)cc2)c(N2CCOCC2)n1,94*,-19,-12,-3.1,2,6,2398
CCCCN1C(=O)NC(=O)C2(Cc3cc(C)ccc3N(C)C2)C1=O (configuration not stated),2,-6,-7,-7.4,.,.,2947
COC(=O)CN(C(=S)Nc1ccc(F)cc1)C1CC(=O)N(c2ccccc2)C1=O (configuration not stated),.,-11,-5,.,.,.,1956
COc1ccc(NC(=S)Nc2cc(C)cc(C)n2)cc1OC,-18,-32,-4,2.3,6,3,9588
Cc1c(C#N)c(O)[nH]c(=O)c1N=Nc1ccc(Br)cc1C(=O)O,.,-2,4,.,.,.,3030
COc1ccc2sc(-c3ccc(N(C)C)cc3)c(C#CCO)c2c1,62,-31,.,-1.2,-9,-9,4122
Cc1ccc(S(=O)(=O)N(C)c2ccc(C(=O)NCC(c3cccs3)N3CCOCC3)cc2)cc1 (configuration not stated),12,-30,-11,-2.7,11,5,6921
O=C1NCCc2c1[nH]c1ccc([N+](=O)[O-])cc21,-10,-5,-1,0.1,1,5,3921
NC(=O)CC1Nc2cccc3cccc(c23)NC1=O (configuration not stated),1,-22,-1,1.4,.,.,1862
CSc1nc(N)nc(SCC(=O)Nc2ccc(Cl)cc2)c1C#N,-30,1,4,9.3,7,1,8112

# A stretch from the list above, as a working copy:
SMILES,ugtP null kill,PrP 5UTR inh,BJeLR lethal,Sa RN4220 lethal,Mtb hypoxia rep,Mtb hypoxia rep growth,Autofluor counter
COc1ccc(-c2n[nH]c(C)c2-c2cnn(-c3ccccc3)c2)c(O)c1,-1,-14,3,-6.3,4,8,19850*
CCOC(=O)C1CCN(Cc2nc3ccc([N+](=O)[O-])cc3c(=O)n2-c2ccc(OC)cc2OC)CC1,1,-31,21,1.1,8,7,3997

# The results go on.
SMILES,ugtP null kill,PrP 5UTR inh,BJeLR lethal,Sa RN4220 lethal,Mtb hypoxia rep,Mtb hypoxia rep growth,Autofluor counter
CCOC(=O)c1ccc([N+](=O)[O-])cc1NC(C)=O,3,2,11,3.0,-6,1,7924
CCc1ccccc1N(CC(=O)N1CCCCC1)S(=O)(=O)c1ccccc1,0,-42,0,6.0,12,15,5317
COc1cc2c(cc1OC)C(c1ccsc1)CC(=O)N2 (configuration not stated),0,-6,-11,2.0,.,.,2471
Cc1cccc(N(CC(=O)N2CCOCC2)S(C)(=O)=O)c1C,9,-24,-10,6.6,11,9,5239
Cc1cc(/N=C/C=C2\N(C)c3ccccc3C2(C)C)n(CCC#N)n1,.,-18,-6,.,.,.,8254
O=C(COc1ccc(S(=O)(=O)N2CCCC2)cc1Cl)N1CCN(c2ccccc2)CC1,3,-15,-5,3.6,7,16,8082
CC1CCCN(CCCNC(=O)CN2C(=O)CSc3ccc(S(=O)(=O)N4CCOCC4)cc32)C1 (configuration not stated),-3,-8,0,1.1,4,-1,4980
CC(=O)c1ccc(N2CCN(S(=O)(=O)c3ccc4c(c3)CC(=O)N4)CC2)cc1,3,7,-7,-5.3,3,3,5526
C=CCNC(=O)c1onc(CSc2cccc(OCC)c2)c1C(=O)O,2,-14,-2,2.5,-2,2,4102
CC(C)[C@@H](N)C(=O)NN=Cc1ccc2nccnc2c1,3,.,.,2.2,15,3,.
COc1ccccc1NC(=O)CCC(=O)Nc1ccccc1OC,9,-13,-2,4.8,13,11,3301
O=C(O)C1=CC(c2ccc3c(c2)OCO3)CC(OCc2ccc(CO)cc2)O1 (configuration not stated),0&-3,.,.,9.7&5.6,19&6,3&4,.
CCc1nc2sc3c(c2c(=O)o1)CCCC3,4,-20,1,4.7,0,0,.
COc1ccc(/C=C/C(=O)NCC(=O)N/N=C/c2cc(Br)ccc2OC)cc1,.,-16,-10,.,.,.,7605
CCc1cccc(C)c1NC(=O)C1CCCN(S(C)(=O)=O)C1 (configuration not stated),5,-26,-2,2.5,4,-2,3816
CCOC(=O)CCCCCC(=O)Nc1ccc2c(c1)CC(=O)N([C@@H](C)CO)C[C@H](C)[C@@H](CN(C)Cc1ccccc1)O2,-2,-23,.,-9.1,7,7,3416
O=C(NC1CC2CCCC(C1)N2C(=S)Nc1ccccc1Cl)C1CC1 (configuration not stated),6,-38,4,2.4,8,8,3654
CCOc1cc(C=NNC(=O)c2ccc(C)nc2)ccc1OC(=O)c1ccc(F)cc1,3,.,.,1.0,3,11,.
O=C(COc1ccccc1)Nc1nnc(S(=O)(=O)Nc2ccccc2)s1,11,-9,-5,7.1,11,1,5748
COc1cccc(NC(=S)NNC(=O)CCn2cc([N+](=O)[O-])cn2)c1,4,-1,1,8.2,10,1,4556
Cc1c(C(=O)OCC(=O)Nc2ccc(S(N)(=O)=O)cc2)oc2c1ccc1ccccc12,.,-20,-5,.,.,.,4295
S=C(Nc1ccccc1)Nc1ccccc1Br,3,-17,3,4.8,-6,5,4145
Cc1cccc(C)c1NC(=O)NC1(C(=O)NCC2CCCO2)CCCCC1 (configuration not stated),1,1,-7,0.5,-5,-5,3246
CCc1ccc(N2C(=O)CN(Cc3ccccc3)C2=S)cc1,9,-17,6,8.3,3,4,3878
O=C(CSc1ccc(-c2ccccn2)nn1)Nc1cccc(F)c1,5,-18,5,2.2,8,14,5969
N#Cc1ccc(C(=O)CN2CCN(c3ccccc3)CC2)cc1,10,-21,3,0.2,2,-3,6031
C=CCN1CCN(C(=O)c2ccc3c(c2)OCO3)CC1,4,-27,-12,2.4,-1,9,5718
Cc1ccccc1OP(N)(=O)Oc1ccccc1C,-4,2,6,11,16,5,3627
CC(C)Sc1snnc1-c1ccccc1,8,-4,1,11,14,0,3454
CC(=O)Nc1nc(C2CC2)cc(-c2ccccc2)c1C#N,17,-19,2,12,-1,0,4679
Cc1nnc(SCC(=O)NNC(=O)COc2ccc(Cl)cc2)s1,8,-4,5,1.6,1,5,5053
COc1ccc(CCNC(=O)CSc2cc(=O)[nH]c(N)n2)cc1OC,3,-2,-2,-3.9,.,.,5037
CC(C)c1nc2oc3c(NCc4ccccn4)ncnc3c2c2c1COC(C)(C)C2,3,-2,-5,5.6,13,5,4294
CC(C)(C)c1csc(N/N=C/c2ccc(O)cc2)n1,.,-55,-1,.,.,.,3336
COc1ccc(CN2CC(=O)N(c3ccc(C)cc3C)C2=S)cc1OC,-1,3,4,3.6,15,10,4163
CC(NS(=O)(=O)c1ccc(Cl)cc1)C(=O)OCC(=O)Nc1ccc(N(C)C)cc1 (configuration not stated),1,-17,.,-0.5,1,0,5206
OCCN1C2CCC1CC(O)(c1ccc(F)cc1)C2 (configuration not stated),11,-15,2,0.3,.,.,3247
COc1ccccc1N1CCN(C(=O)C(=O)NN=Cc2ccccc2F)CC1,0,.,.,3.4,3,-3,.
COc1cc2c(cc1OC)-c1nnnn1C(C)(C)C2,3,-12,0,2.0,7,13,8122
COc1ccc(/C=N/NC(=O)c2ccoc2C)cc1CN1CCN(c2ccc(F)cc2)CC1,.,-15,-2,.,.,.,3594
COc1ccc(S(=O)(=O)Nc2ccc3c(c2)C(=O)N([C@@H](C)CO)C[C@H](C)[C@H](CN(C)S(=O)(=O)c2ccc(F)cc2)O3)cc1,-7,28,.,3.0,4,4,3739
CCCNc1nc(C)cc(-c2cc(-c3ccc(Cl)cc3)on2)n1,-26,-18,3,-3.4,-19,-11,4096
CCOc1cc2[nH]c(=S)n(Cc3ccc(C(=O)N4CCN(C)CC4)cc3)c(=O)c2cc1OCC,4,-15,7,3.9,3,8,5674
CN(N)c1ccc2c(C(F)(F)F)cc(C(F)(F)F)nc2n1,11,-18,-1,7.8,3,0,4369
CS(=O)(=O)N(CC(=O)N1CCCCC1)Cc1ccccc1,.,-20,-1,.,.,.,2974
COc1cccc(NC(=O)c2sc3nc4n(c(=O)c3c2C)CCC4)c1,6,-51,-1,1.7,4,-11,4413
CCOC(=O)COc1nc(C)c(Br)c(OC)n1,5,-21,9,2.8,3,-1,8513
COc1nc(-c2ccccc2Cl)ccc1C#N,5,-1,2,10,8,6,7961
CCN(CC)CCC(c1cc(OC)c(OC)c(OC)c1)c1c(OC)cc(OC)c2c(-c3ccccc3)cc(=O)oc12 (configuration not stated),-13,-1,10,-2.4,7,9,3660
Cc1cc2cc(CN(Cc3ccc4c(c3)OCO4)C(=O)c3ccco3)c(=O)[nH]c2cc1C,-2,0,-11,6.3,.,.,3173
COc1ccc(NC(=O)Nc2ccc(C(=O)N3CCOCC3)cc2)cc1OC,0,3,6,1.9,-2,6,6482
COc1cc(OC)c(C(=O)Nc2cc(S(=O)(=O)N3CCOCC3)ccc2N2CCN(C)CC2)cc1OC,2,-10,.,0.7,9,13,3559
COC(=O)COc1cccc2c(=O)n(CC(=O)N3CCCCC3)ccc12,8,-45,5,4.1,4,5,4361
O=C(O)Cc1ccc(NC(=S)Nc2cccc(Cl)c2Cl)cc1,-1,-9,14,0.9,6,6,2572
O=C1c2ccccc2C(=Cc2ccc3[nH]ccc3c2)N1c1ccccc1,-7,.,.,3.6,6,10,.
Cc1c(NC(=O)/C=C/C(=O)O)cccc1[N+](=O)[O-],4,.,13,5.7,10,6,10756
Cc1ccc(S(=O)(=O)CCSc2n[nH]c(=O)n2-c2ccccc2)cc1,0,.,-11,1.6,18,17,.
CCOc1ccc(/C(C)=N/NC(=O)c2nnn(-c3nonc3N)c2-c2cccs2)cc1,.,-22,4,.,.,.,6445
CCOc1ccc(C2c3c(oc4ccccc4c3=O)C(=O)N2CCCN2CCOCC2)cc1 (configuration not stated),-8,0,-4,-14,14,15,3039
CN(C)CCNc1nc2sc3c(c2c(=O)n1Cc1ccccc1)CCCCC3,1,-9,30,1.8,12,8,3420

# One compound at a time, from the list above. Screens in order: ugtP null kill, PrP 5UTR inh, BJeLR lethal, Sa RN4220 lethal, Mtb hypoxia rep, Mtb hypoxia rep growth, Autofluor counter
# Record of CCOc1ccc(C2c3c(oc4ccccc4c3=O)C(=O)N2CCCN2CCOCC2)cc1 (configuration not stated) : -8, 0, -4, -14, 14, 15, 3039
# Record of CN(C)CCNc1nc2sc3c(c2c(=O)n1Cc1ccccc1)CCCCC3 : 1, -9, 30, 1.8, 12, 8, 3420
# Record of CCOc1ccc(/C(C)=N/NC(=O)c2nnn(-c3nonc3N)c2-c2cccs2)cc1 : ., -22, 4, ., ., ., 6445
# Record of CCN(CC)CCC(c1cc(OC)c(OC)c(OC)c1)c1c(OC)cc(OC)c2c(-c3ccccc3)cc(=O)oc12 (configuration not stated) : -13, -1, 10, -2.4, 7, 9, 3660

# (more compounds)
SMILES,ugtP null kill,PrP 5UTR inh,BJeLR lethal,Sa RN4220 lethal,Mtb hypoxia rep,Mtb hypoxia rep growth,Autofluor counter
Cc1ccc(S(=O)(=O)Cc2ccc(C(=O)N3CCN(c4cccc(C)c4C)CC3)o2)cc1,-3,-11,40,18,1,4,4579
COCCN1C(=O)C(=O)/C(=C(/O)c2ccc(OC(C)C)cc2)C1c1cccnc1 (configuration not stated),13,-29,-6,3.2,13,7,8064
Cc1ccc2nc(SCC(=O)NC3CCCC3)nc(=O)n2c1,10,-1,-6,3.0,11,-4,.
CC1(C)Cc2cccc(OCC(=O)N3CCN(S(=O)(=O)c4ccccc4)CC3)c2O1,-7,-1,0,-2.7,-3,-5,6723
CNC(=O)N(O)C1N(N=Cc2ccccc2O)C(=S)SC1(C)C (configuration not stated),-2,.,.,6.0,12,17,.
CSc1nc2n(n1)C(c1cccc(F)c1)C(C(=O)Nc1ccc(C)cc1C)=C(C)N2 (configuration not stated),-8,-17,9,4.0,5,1,8190
N#CC1=C(N)NC(SCC(=O)c2ccc(Cl)cc2)=C(C#N)C12CCCC2,22,1,-11,4.4,4,1,9039
C=C1CCN([C@@H](Cc2ccccc2)C(=O)NCc2ccc(Cl)c(Cl)c2)S(=O)(=O)c2ccccc21,.,-16,11,.,.,.,3000
COC(=O)c1sccc1N/N=C/c1cccc(Oc2ccccc2)c1,.,-51,13,.,.,.,9999
CCCN(CCC)c1nc(N)c(C#N)c(CC#N)c1C#N,2,-5,-2,5.8,13,-2,4067

# High-throughput results: PubChem, several laboratories
